Yeast UUG start: modulators of start codon recognition fidelity in yeast. AID 602363. activity score, % at 18.7 µM. S. cerevisiae UUG-firefly luciferase reporter, luminescence/redox ratio. hit rate 0.13% among 350,000;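 active = replicate mean at a twofold rise or more, about +100% in these data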;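 also: firefly luciferase made from a UUG start codon reports start codon fidelity; reporter light over untreated wells divided by growth signal over untreated wells; some hits fall short of that in this replicate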
eIF4H FP inh: inhibitors of RNA binding by human eIF4H; Q15056; eIF4H fluorescence polarization binding assay; inhibition, % at 35 µM; hit rate 0.94% among 290,000; AID 2012;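 active = 50% or more with normal probe brightness, or confirmed in later tests; inconclusive = above 50% with abnormal brightness, or retests that disagree; inactive = below 50% or failed in later tests; about a fifth of its hits are not listed in these tables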;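 also: calls also rest on retests at 20 µM and on dose response follow-up; 0% = protein and probe with vehicle and 100% = probe without protein; strong numbers were not always called active; many hits fall short of the cut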
Rce1 inhib: inhibitors of yeast Ras-converting enzyme | calls only | hit rate 0.27% among 290,000 | yeast membranes, quenched prenylated peptide cleavage fluorescence | Q03530;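 active = fall in fluorescence gain of 50% or more versus controls, with final raw signal at or below 3038400; inconclusive = same 50% fall but final raw signal above 3038400; inactive = fall in fluorescence gain under 50%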;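 also: plate controls were neutral control wells for no effect and wells lacking membranes for full effect; tested at 10 µM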
Target sequence (Q03530 whole entry, looked up): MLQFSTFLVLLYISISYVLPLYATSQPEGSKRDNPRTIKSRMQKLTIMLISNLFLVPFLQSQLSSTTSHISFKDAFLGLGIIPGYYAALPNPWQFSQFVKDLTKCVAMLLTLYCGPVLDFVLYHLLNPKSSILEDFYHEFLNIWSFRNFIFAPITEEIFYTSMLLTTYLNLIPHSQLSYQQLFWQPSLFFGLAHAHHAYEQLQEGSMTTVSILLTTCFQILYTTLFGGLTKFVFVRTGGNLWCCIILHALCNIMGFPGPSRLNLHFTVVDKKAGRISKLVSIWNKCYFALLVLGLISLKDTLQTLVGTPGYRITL
HIV Env fusion: HIV envelope-mediated fusion inhibition | HeLa-JRFL Env/CEM21 cell fusion, luciferase | inhibition, % at 12.3 µM | hit rate 1.1% among 360,000 | AID 651610;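 active = mean replicate inhibition score of at least 50 and every replicate individually at or above 50; inconclusive = only one of the two criteria met; inactive = mean below 50 and not all replicates reaching 50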;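 also: 0% = plate neutral controls and 100% = maraviroc near 300 nM; one replicate is shown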
MT1-MMP act inh: MT1-MMP (human) activation inhibition | P50281 | HT1080 RFP-PRO-GFP cells, GFP/RFP ratio fluorescence, overnight; percent of plate control window, DMSO zero | GFP/RFP ratio change, % at 20 µM | hit rate 0.061% among 360,000 | AID 651647;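 active = GFP/RFP ratio change of at least 30% with cell ATP level not reduced by more than half and red fluorescence within 50% of control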; also: strong numbers were not always called active
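Material – HT1080 RFP-PRO-GFP cells · Control set – DMSO wells and RFP-L50D-GFP cells · Incubation – overnight cell settling, then overnight compound exposure, 37 °C, 5% CO2 · Compound dosing – single-point 20 µM compound, 1% DMSO · Read-out – GFP/RFP fluorescence ratio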
PABP polyA inh: PABP-poly(A) binding inhibition. P11940. PABP-poly(A) RNA binding, fluorescence polarization. inhibition, % at 35 µM. hit rate 1% among 290,000. AID 2014;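 active = 50% or more with normal probe brightness, or confirmed in later tests; inconclusive = above 50% with abnormal brightness, or retests that disagree; inactive = below 50% or failed in later tests; about a fifth of its hits are not listed in these tables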;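 also: calls also rest on retests at 20 µM and on dose response follow-up; controls were probe without protein and protein plus probe with vehicle; some compounds called inactive have numbers as strong as hits; many hits fall short of the cut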
CSC inhib: cancer stem cell inhibition; hit rate 1.1% among 300,000; inhibition, % at 7.5 µM; cancer stem cell-like cells viability, luminescence;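 active = mean at 75% or more and at least half the replicates too; inconclusive = mean and replicates disagree; tested in HMLE shEcad cells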;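 also: 0% = median of negative and 100% = median of positive control wells; the first replicate is given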
MT1-MMP act inh RFP: second read-out of MT1-MMP act inh, no call of its own (marks repeat the call); RFP signal change, %; measured here: RFP expression control read;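 0 = vehicle wells; hits needed this value within 50% of zero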
* marks the source's active call; other numbers are inactive results; i = inactive; u = inconclusive; x = not tested or not shown; & = joins results of further samples.

SMILES	Yeast UUG start	eIF4H FP inh	Rce1 inhib	HIV Env fusion	MT1-MMP act inh	MT1-MMP act inh RFP	PABP polyA inh	CSC inhib
CCCCn1c(N)c(N(CC)C(=O)c2ccc(Cl)c(Cl)c2)c(=O)[nH]c1=O	-12	-5	i	26	-2	-2	-1	-2
CC1(C)CC(C(=O)Nc2nccs2)CCO1 (stereo not given)	-1	-2	i	x	-1	5	-4	7
O=C(CNc1ccccc1N1CCCC1=O)Nc1cc(Cl)ccc1-n1cncn1	-17	x	x	4	2	1	x	x
N#CC1C(=N)Cc2ccccc2-c2ccccc21 (stereo not given)	-19	x	x	14	-3	-6	x	x
Cc1ccc(CNc2cc(C(=O)O)ccc2Cl)s1	-11	2	i	-7	-1	0	5	-2
Cc1cc2nc(SCC(=O)Nc3nonc3C)c3c(c2cc1C)CCCC3	-12	-3	i	2	-3	3	-7	x
O=[N+]([O-])c1ccc(C(=S)N2CCCC2)cc1	-11	-1	i	7	0	5	2	-17
OCCNc1nc2ccccc2n1CCN1CCCCC1	-19	-4	i	x	1	5	1	-4
O=C(CN1CCN(Cc2ccccc2F)CC1)Nc1ccccc1Cl	-5	1	i	-7	1	3	8	10
CCOC(=O)/C(C#N)=C(/C)c1ccc(OC)cc1	-15	-8	i	x	3	7	0	-14
c1ccc(-c2cnc(CSc3ncnc4sccc34)o2)cc1	-24	3	i	-52	-3	-2	-7	20
COc1ccc(NC(=O)CN2CCN(CC(=O)Nc3ccccc3Cl)CC2)cc1Cl	-3	-10	i	x	7	-6	-4	-11
CC(CCc1ccccc1)NC(=O)c1cnc(Cl)c(Cl)c1 (stereo not given)	2	-4	i	9	2	1	0	0
Cc1ccc(NC(=O)CC(O)(C(F)(F)F)C(F)(F)F)cc1	-11	6	i	-72	-1	3	-2	-1
Cc1noc(C)c1S(=O)(=O)NC1CCCc2ccccc21 (stereo not given)	7	-1	i	-13	0	1	3	-12
Cc1[nH]n(C(N)=S)c(=O)c1N=Nc1ccc([N+](=O)[O-])cc1Cl	-19	8	i	-27	-1	-3	-3	-6
COc1ccccc1/C=C/C(=O)OCCN1C(=O)c2ccccc2C1=O	-11	-5	i	-3	2	1	2	-1
C=CCNC(=S)NC(=O)c1csc([N+](=O)[O-])c1	x	-3	i	-2	5	3	-1	0
Cc1c(C)c2ccc(OCC(=O)NCCc3c[nH]c4ccccc34)c(C)c2oc1=O	-24	-4	x	x	-1	-4	-2	4
Cc1cc(C2C(=O)c3ccccc3C2=O)c(C)c(C)c1C	x	8	i	-2	5	2	1	2

In a second layout: results already given
| Structure | Yeast UUG start | eIF4H FP inh | Rce1 inhib | HIV Env fusion | MT1-MMP act inh | MT1-MMP act inh RFP | PABP polyA inh | CSC inhib |
| --- | --- | --- | --- | --- | --- | --- | --- | --- |
| Cc1[nH]n(C(N)=S)c(=O)c1N=Nc1ccc([N+](=O)[O-])cc1Cl | -19 | 8 | i | -27 | -1 | -3 | -3 | -6 |
| COc1ccccc1/C=C/C(=O)OCCN1C(=O)c2ccccc2C1=O | -11 | -5 | i | -3 | 2 | 1 | 2 | -1 |

Carrying on.
SMILES	Yeast UUG start	eIF4H FP inh	Rce1 inhib	HIV Env fusion	MT1-MMP act inh	MT1-MMP act inh RFP	PABP polyA inh	CSC inhib
COc1cc(-c2cc(=O)c3c(O)cc(O)cc3o2)ccc1O	-12	16	x	x	-87	-9	10	-10
COc1ccc(C2CC(c3ccccc3)=NN2C(=O)COC(=O)c2cccc(S(=O)(=O)N3CCOCC3)c2)cc1 (stereo not given)	x	-19	i	9	3	1	-5	-2
O=C(NCc1ccccn1)c1cc(Br)ccc1Cl	x	-1	i	-11	1	-5	1	-20
CSc1ccccc1N=Cc1nc(-c2ccccc2)oc1O	-17	-4	i	x	-3	-6	3	0
COc1cc(C)cc(CN2CCC(Cc3ccccc3)CC2)c1O	-8	5	i	-16	-4	-1	6	24
O=C(COc1ccccc1)N1CCN(C(=O)c2ccco2)CC1	-11	4	i	x	2	5	5	15
COc1ccccc1-c1cc(C(=O)N2CCOCC2)no1	-10	-4	i	-31	0	0	8	-11
O=C1[C@H]2[C@@H](c3ccccc3)N[C@]3(CCCN(Cc4ccccc4)C3=O)[C@H]2C(=O)N1Cc1ccccc1	-1	x	x	-110	-3	-2	x	x
Cc1ccc(S(=O)(=O)NCCC(c2ccccc2)c2ccccc2)cc1C(=O)O	-3	-6	i	-1	-2	-4	-7	-5
Cc1ccccc1Nc1ncnc2c1cnn2C	-28	3	i	12	0	5	-8	-4
C=C(C)C1CC=C(C)/C(=N/NC(=O)COc2ccccc2C)C1 (stereo not given)	13	0	i	-34	-3	-2	-12	10
COc1ccc(Cl)cc1S(=O)(=O)N1CCN(C(=O)c2n[nH]c(=O)c3ccccc23)CC1	-13	x	x	-275	-19	-14	x	-2
O=C(NCCc1ccc(F)cc1)c1ccncc1	-7	-5	i	9	-1	2	-8	-14
C#CCOn1c(-n2nc(C)cc2C)nc2ccccc2c1=O	0	3	i	-5	1	7	9	14
CCOc1cc(C(=O)NC(C)Cc2cccs2)cc(OCC)c1OCC (stereo not given)	x	2	i	9	-1	-3	3	-3
Cc1cc(S(=O)(=O)NCC(C)C)ccc1OCC(=O)NCc1ccccn1	-9	-7	i	-31	2	5	8	-7
Cc1c(C(=O)Nc2ccccc2F)sc2nc3n(c(=O)c12)CCC3	-13	x	i	-55	0	-1	x	-6
Cc1cc(C)c(NC(=O)CCCCCNC2CCCCC2)c(C)c1	-13	3	i	9	1	5	1	4
Cc1ccc2c(c1)c(C)c(C)n2CC(O)Cn1nnc2ccccc21 (stereo not given)	-16	8	i	-139	4	25	0	1
O=C(NCCS(=O)(=O)N1CCN(c2ccccc2F)CC1)c1c(F)cccc1F	-7	x	i	2	3	2	x	3
Cc1ccc(Nc2ncnc(Cl)c2N)cc1	-18	x	x	-16	3	-3	x	x
O=C(OCc1cn([C@H]2CN(C(=O)c3cccs3)[C@@H](c3ccccc3)C[C@@H]2O)nn1)c1ccccc1	-5	x	x	-64	3	2	x	x
O=C(O)c1ccccc1SC1CC(=O)N(c2cccc3ccccc23)C1=O (stereo not given)	-19	0	x	3	2	3	-2	x
O=C(Nc1ccccc1NC(=O)c1c(F)c(F)c(F)c(F)c1F)c1c(F)c(F)c(F)c(F)c1F	-28	2	i	-4	-8	-4	0	10
OCC[C@H]1C[C@H](O)[C@@H](O)[C@@]2(Cc3ccccc3O2)O1	4	x	x	1	0	3	x	-1
CCN1C(=O)C(CC(=O)Nc2ccccc2Cl)N(NC(=O)c2cccc(F)c2)C1=S (stereo not given)	-10	-1	i	17	-8	-2	6	10
Cc1ccc(N2C(=O)CC(Cc3cccc(C)c3)C2=O)cc1 (stereo not given)	x	-1	x	17	-1	0	1	-12
CC(C)COC(=O)N(C)C[C@@H]1OCc2cnnn2CCCC(=O)N([C@H](C)CO)C[C@H]1C	-6&4	x	x	5	3	10	x	x
C#CCOCCOCCOCCNc1nc(N2CCN(C(=O)[C@H]([C@@H](C)CC)n3cc([C@@H](N)Cc4ccc(O)cc4)nn3)CC2)nc(N2CCN(C(=O)[C@H](Cc3ccc(O)cc3)n3cc([C@@H](N)CC(C)C)nn3)CC2)n1	14	-8	i	-6	2	0	-8	-9
NNC(=O)CNC(c1ccccc1)c1cc(Br)ccc1NC(=O)c1ccccc1Br (stereo not given)	-6	-5	i	-27	-2	1	1	-2
CCOC(=O)C1C(=O)CC(C)(O)C(C(=O)OCC)C1c1ccc(OCC)cc1 (stereo not given)	x	-2	i	x	-2	0	-8	-28
NC(=O)Cn1nnc(-c2ccc(C(F)(F)F)cc2)n1	-13	-8	i	16	0	0	5	-16
CCOC(=O)C(NC(=O)NCc1ccc(F)cc1)(OCC)C(F)(F)F (stereo not given)	x	14	i	x	1	5	1	4
CC1(C(=O)NCCOc2ccccc2Cl)CC1(Cl)Cl (stereo not given)	-8	1	i	5	-3	3	-23	-15
COc1ccc2nc(-c3ccc(N)cc3)[nH]c2c1	-9	-8	i	-30	11	2	-8	-8
CCN1CCN(S(=O)(=O)c2ccc(Br)s2)CC1	-8	-4	i	-6	4	3	2	-11
Cc1ccc(-c2cc(C(F)F)nc(NCC3CCCO3)n2)cc1 (stereo not given)	x	-7	i	20	1	-13	-1	0
O=[N+]([O-])c1ccc(C2=NN(c3ccccc3)C(c3ccco3)C2)cc1 (stereo not given)	x	104*	i	-11	-102	13	54*	x
COc1ccc(NC(=O)c2cccnn2)cc1	-11	-4	i	-86	1	2	3	-24
O=C(O)c1cccc(-c2csc(C(O)c3cccc(Cl)c3)n2)c1 (stereo not given)	-8	x	x	-10	0	6	x	x
COC(/C=C/Nc1ccc(C)c(C)c1)=C(C#N)C#N	-2	-3	i	-3	-7	-5	10	-8
COc1ccc(Cl)cc1NC(=O)CCNC(=O)OCc1ccccc1	x	-3	i	-10	2	2	14	-4
O=C(NCCc1ccccc1)N1c2ccccc2Sc2ccccc21	8	-8	i	60*	-3	-8	3	25
COc1ccc2c(c1)-c1nc(NC(=O)c3cccs3)sc1CC2	x	-11	i	x	-25	-24	-1	u
O=C(COC(=O)c1cc(S(=O)(=O)N2CCOCC2)ccc1Cl)NCc1ccco1	3	x	i	6	-2	1	x	-13
Cc1ccc2c(c1)N(CC(=O)Nc1ccc3c(c1)OCCO3)C(=O)CO2	-16	-4	i	-14	1	3	-5	-15
CCS(=O)(=O)c1ccc(O)c(NC(=O)/C=C/c2ccccc2)c1	x	6	i	-24	0	2	-6	x
CCN(CC)c1nc(NN)nc(Nc2ccc(C)c(Cl)c2)n1	x	x	i	-192	-8	-9	x	33
COc1ccc(NC(=O)CCS(=O)(=O)c2ccc3c(c2)oc(=O)n3C)cc1OC	x	-7	i	30	1	2	-8	-14
c1ccc(CNc2c(-c3cccc(SC4CCCCC4)c3)nc3ccccn23)cc1	-28	x	x	1	8&3	-16&-10	x	102*
COc1ccc(C(CNC(=O)CN2C(=O)NC3(CC(C)CC(C)(C)C3)C2=O)N2CCOCC2)cc1 (stereo not given)	-1	4	i	-54	4	10	4	-6
COc1cc(OC)cc(C(=O)NC(=S)Nc2ccc(NC(=O)c3ccco3)cc2)c1	x	-1	i	-10	-1	3	13	-3
CCOC(=O)Cn1cnc2scc(-c3ccc(C)cc3)c2c1=O	-9	2	i	-5	-1	0	-11	-14
Cc1ccc(-c2csc(C(C)(O)c3cccc(F)c3)n2)cc1C (stereo not given)	-10	x	x	4	5	-5	x	x
O=C(COC(=O)c1cc(S(=O)(=O)Nc2ccccc2Cl)ccc1O)Nc1ccc(F)c(F)c1F	-21	x	x	-39	-1	1	x	-10
O=C(Nc1cccc2ccccc12)c1ccccc1Cl	-12	3	i	-4	-1	-1	0	-2
COc1cccc(NC(=O)[C@H](Cc2c[nH]c3ccccc23)NC(=O)[C@@H]2Cc3ccccc3CN2)c1	-5	-6	i	x	5	5	4	39
CC(C)CC1Nc2ccc(C(=O)NCCCN3CCOCC3)cc2NC1=O (stereo not given)	-9	6	i	5	-3	-3	0	-9
COc1cc(/C=C2/C(=N)N3C=CSC3=NC2=O)ccc1OCCCOc1cc(C)ccc1C	x	8	i	x	-12	-1	-3	28
COc1ccc(Br)cc1S(=O)(=O)n1ccnc1	x	0	i	4	2	5	-15	0
Clc1cccc(OCCCCN2CCCCC2)c1	-13	11	i	3	3	0	8	6
